Screens as filed in PubChem BioAssay.
MLL AF4-AF9 inh – inhibitors of AF4 peptide binding to AF9, primary screen, biochemical, AlphaScreen, biotin-AF4 peptide, FLAG-AF9, single point | 350,000 compounds, 0.47% hits | AID 651704, 2012 | Protein AF-9 (Homo sapiens), P42568 | inhibition, % at 10 µM;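 active means every replicate reaching a set inhibition limit, whatever the replicate mean, cut at about 25% in these data; inconclusive means mean inhibition reaches that limit but some replicates miss it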;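 further: 0% = plate neutral control median and 100% = total signal loss; the record names both 10 and 1 µM as test concentration; the first replicate is given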
Target sequence (P42568 whole entry, looked up): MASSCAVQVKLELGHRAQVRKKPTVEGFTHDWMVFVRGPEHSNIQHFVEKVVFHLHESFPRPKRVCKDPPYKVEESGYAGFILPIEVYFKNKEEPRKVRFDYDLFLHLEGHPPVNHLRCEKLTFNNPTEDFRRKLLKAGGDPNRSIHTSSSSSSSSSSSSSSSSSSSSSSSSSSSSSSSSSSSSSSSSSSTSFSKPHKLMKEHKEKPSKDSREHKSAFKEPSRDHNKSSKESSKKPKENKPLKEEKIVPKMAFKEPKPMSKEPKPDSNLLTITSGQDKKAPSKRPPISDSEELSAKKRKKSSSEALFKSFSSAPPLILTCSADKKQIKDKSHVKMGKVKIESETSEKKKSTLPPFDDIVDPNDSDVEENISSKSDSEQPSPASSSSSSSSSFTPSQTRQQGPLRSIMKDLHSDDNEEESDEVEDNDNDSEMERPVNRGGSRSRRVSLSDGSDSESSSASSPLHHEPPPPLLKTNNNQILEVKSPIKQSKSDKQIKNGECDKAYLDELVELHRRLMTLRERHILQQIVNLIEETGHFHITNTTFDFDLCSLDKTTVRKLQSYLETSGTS
RanGTP-Imp inh – inhibitors of RanGTP-importin-beta interaction, primary screen, biochemical, FRET, CFP-Ran, YFP-importin-beta, homogeneous | cell-free CFP-Ran/YFP-importin-beta FRET ratio | inhibition, % (concentration not given with the values) | 300,000 compounds, 1.1% hits;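 active means most replicates above 15%; inconclusive means exactly half above 15%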;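 further: 0% = DMSO wells and 100% = Ran loaded with GDP instead of GTP; wells of about 40 µL received 100 nL stock; the first replicate is given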
Bfl-1 A1 inh – caspase 3/7 activation in MEF A1-2A-BIM cells, primary screen, A1 inhibitor project, cell-based, luminescence, HTS; Caspase-Glo 3/7 luminescence, 3 h; percent of clofoctol response, vehicle zero; caspase activation, % (no concentration beside the values); 330,000 compounds, 0.066% hits; AID 2462, 2010;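 active means over half of replicate activation scores above 10%, or exactly half above 10 with the replicate mean above 10; inconclusive means replicate mean below 10 yet half the replicates above 10; inactive means over half of replicates below 10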;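 further: wells of about 30 µL received 50 nL stock; many hits fall short of the cut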
Vif TR-FRET – inhibitors of Vif binding to APOBEC3G peptide, primary screen, biochemical, TR-FRET, GST-Vif 1-94, biotin-A3G peptide, dose response retest (AID 1117319); TR-FRET GST-Vif / biotin-A3G peptide binding; higher % means a stronger effect; test concentration not given here; strong numbers were not always called active; inhibition, %, or IC50 in µM where a hit was titrated; 260,000 compounds, 0.57% hits;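 active means above the screen mean plus three standard deviations and confirmed in dose response; inconclusive means results disagree or hit not tested in dose response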;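 further: Vif residues 1-94 fused to GST binding biotinylated APOBEC3G peptide 110-148; 0% = full assay without inhibitor and 100% = GST in place of GST-Vif; retest series ran down from 100 µM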
Calb FLC – C. albicans growth inhibition with fluconazole, primary screen, CaCi-2 strain, Alamar Blue fluorescence. C. albicans CaCi-2 (fluconazole-resistant clinical isolate) + fluconazole, 48 h. growth inhibition, % (test concentration not listed). 300,000 compounds, 0.57% hits;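 active means most replicates above 75%; inconclusive means exactly half above 75%; inactive means most below 75%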;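 further: all wells also contain fluconazole at 8 µg/ml as a sub-toxic cotreatment; 0% = median of DMSO wells and 100% = median of geldanamycin control wells; wells of about 8 µL received 7.5 nL stock; the first replicate is given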
Beta apoptosis – inhibitors of cytokine-induced beta cell apoptosis, primary screen, luminescence; INS-1E cytokine-induced death, ATP luminescence, 48 h; percent of positive-control rescue, neutral wells zero; protection from apoptosis, % (no concentration beside the values); 300,000 compounds, 0.8% hits;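 active means all replicates at 75% or more, or half of them and the mean; inconclusive means half reach 75% but not the mean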;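 further: 0% = cytokine-treated negative control wells and 100% = positive control rescue; higher means more ATP so stronger rescue from cytokine killing; wells of about 40 µL received 100 nL stock; the first replicate is given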
Ecoli rRNA inh – reduced GFP signal of wild-type E. coli, primary screen, bacterial rRNA inhibitor project, GFP/RFP fluorescence, OD600, single point | E. coli WT GFP vs humanized-ribosome RFP mutants, 24 h; stronger effect = lower value; DMSO median 0, no signal -100 | GFP signal change (wild-type ribosome), % (concentration not given with the values) | 350,000 compounds, 1.6% hits;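 active means significant combined selectivity score with lowered wild-type GFP, culture density cut under 30%, mutant RFP and density less affected; inactive means any of these conditions unmet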; further: one replicate is shown; some compounds called inactive have numbers as strong as hits
T cruzi repl – inhibitors of intracellular T. cruzi growth, primary screen, luminescence, NIH3T3 host cells. 300,000 compounds, 1.4% hits. T. cruzi beta-gal in NIH3T3, 90 h. inhibition, % (concentration not given with the values);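 active means mean inhibition across valid replicates above about 55%, limit read from the data; inconclusive means mean below that limit but half or more replicates reach it; inactive means mean below it, under half of replicates reach it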;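 further: signal also drops with host cell toxicity which is not excluded here; 0% = plate median of DMSO wells and 100% = zero luminescence signal; higher percent means less beta-gal luminescence so fewer parasites; stock transfer was 50 nL into about 50 µL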
Ecoli rRNA inh OD600 – second read-out of Ecoli rRNA inh, no call of its own (marks repeat the call); OD600 change, %; measured here: OD600 growth;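 optical density of the mix in the first replicate; 0 = DMSO median and -100 = no signal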
Ecoli rRNA inh RFP – second read-out of Ecoli rRNA inh, no call of its own (marks repeat the call); RFP signal change, %; measured here: RFP humanized mutant strains;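 first replicate; 0 = DMSO median and -100 = no signal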
Numbers without * were called inactive; u = inconclusive; x = not tested or not shown; & = joins results of further samples.

SMILES | MLL AF4-AF9 inh | RanGTP-Imp inh | Bfl-1 A1 inh | Vif TR-FRET | Calb FLC | Beta apoptosis | Ecoli rRNA inh | Ecoli rRNA inh OD600 | Ecoli rRNA inh RFP | T cruzi repl
Cc1ccc(S(=O)(=O)/N=C(/Nc2c(C)cccc2C)c2ccccc2)cc1 | 0.1 | x | 1.7 | x | x | 5 | -36* | -26* | 0.2* | x
C[C@H](CO)N1C[C@H](C)[C@@H](CN(C)C(=O)Nc2ccc3c(c2)OCO3)Oc2ccc(NC(=O)Nc3ccc4c(c3)OCO4)cc2C1=O | -7.1&5.0 | x | -0.1 | 6% | x | 2 | 3&-2 | -3&0 | -3.2&0.4 | x
O=C1N(c2ccccc2)C[C@@H]2C[C@@H](c3cccc4c3OCO4)N3CCC[C@@]123 | x | 2.0 | -0.2 | -6% | 4 | -3 | x | x | x | 6
CN(CC(=O)Nc1ccc(F)cc1)C(=O)C1CC(=O)N(Cc2ccccc2)C1 (stereo not given) | 4.8 | -1.1 | -0.2 | -6% | 2 | -7 | 10 | 12 | 0.7 | -6
Cc1nc(N2CCN(Cc3ccc4c(c3)OCO4)CC2)c2cc(-c3ccccc3)sc2n1 | 6.0 | 2.3 | -0.9 | 14% | 0 | 16 | 6 | 14 | 27 | 44
COc1ccc(S(=O)(=O)NNC(=O)C23CC4CC(CC(C4)C2)C3)cc1[N+](=O)[O-] | 0.4 | 6.9 | 1.3 | -4% | 0 | -16 | 9 | 5 | 1.6 | -9
O=S(Cc1ccc(Cl)cc1)CC(O)COCc1ccc(Cl)cc1 (stereo not given) | x | 2.3 | -0.3 | -2% | 1 | -8 | x | x | x | -6
O=c1oc(CCCO)cc2ccc(C#Cc3ccsc3)cc12 | 1.6 | x | -1.7 | x | x | -3 | -16 | -18 | -4.0 | x
CCOC(=O)N1CCC(NC(=O)C2CCCN(Cc3nc(-c4ccc(CC)cc4)oc3C)C2)CC1 (stereo not given) | 7.0 | 3.8 | 0.1 | 5% | 3 | 28 | 5 | -6 | 14 | 37
CCN1CCN(CCOCCOc2ccccc2-c2ccccc2)CC1 | x | 1.2 | 0.9 | x | -23 | -2 | x | x | x | 3
C#CCOCCOCCOCCNc1nc(N2CCN(C(=O)C([C@@H](C)CC)n3cc(C(N)Cc4ccc(O)cc4)nn3)CC2)nc(N2CCN(C(=O)[C@H](CCC(=O)O)n3cc(C(N)CO)nn3)CC2)n1 (stereo not given in full) | x | 0.9 | 0.0 | -3% | -11 | -7 | x | x | x | 18
COc1ccc(C(C)=O)c(Oc2cc(NN3CCCCC3)c([N+](=O)[O-])cc2[N+](=O)[O-])c1 | 3.2 | 0.2 | u | x | 0 | -6 | 2 | -7 | -6.7 | -3
COc1ccc(Cc2noc(-c3ccc([N+](=O)[O-])cc3)n2)cc1OC | x | 1.7 | -2.3 | x | -2 | -2 | 2 | 33 | -1.9 | 25
O=C1CC(N2CCN(c3ccc(F)cc3)CC2)C(=O)N1c1ccc(F)cc1 (stereo not given) | 0.0 | 1.9 | 2.3 | x | 1 | 0 | 14 | 8 | -0.8 | -10
CCC(OC(=O)c1cccs1)C(=O)NCc1ccc2c(c1)OCO2 (stereo not given) | x | 3.0 | 1.4 | 8% | -44 | -7 | x | x | x | -2
CCCCOC(=O)C(C)Sc1n[nH]c(=O)[nH]c1=O (stereo not given) | -2.7 | -1.5 | 1.4 | 2% | 3 | 4 | -4 | 1 | -3.4 | -10
COc1cccc(C2N(c3ccccc3)CCN2c2ccccc2)c1OC | -0.2 | -2.4 | 1.2 | -5% | -9 | -2 | 7 | 10 | -1.3 | -9
CC(NC(=O)COC(=O)c1ccc([N+](=O)[O-])s1)c1ccccc1 (stereo not given) | x | -2.5 | 3.0 | 0% | 2 | -4 | x | x | x | 11
Cc1cccn2c(=O)c(C=O)c(N3CCCCC3)nc12 | -8.8 | -6.0 | 0.5 | u | 11 | -2 | 6 | 11 | 1.9 | -7
Cc1ccc(CN=Cc2[nH]c3ccc(Br)c(Cl)c3c2O)cc1 | 3.3 | 4.2 | -1.1 | -2% | -34 | -12 | -21 | -10 | -5.7 | -4
CCN1C(=O)C(CC(=O)Nc2ccc(C)cc2C)Nc2cc(S(=O)(=O)N(C)C)ccc21 (stereo not given) | -0.5 | 9.2 | -0.2 | 13% | -21 | -4 | 10 | 1 | 2.4 | -1
O=S(=O)(NCCc1ccccn1)c1cccs1 | x | -2.6 | -0.3 | 0% | -8 | 1 | 4 | -6 | -5.4 | -4
O=C(CSC1=Nc2ccccc2C2=NC(c3ccccc3)C(=O)N12)NC1CCCCC1 (stereo not given) | x | 4.1 | 0.4 | 4% | 51 | 4 | x | x | x | 8
CC(C)CNS(=O)(=O)c1cc(C(=O)OCC(=O)N2CCOCC2)c(Cl)cc1Cl | -10 | 1.0 | -0.8 | x | 8 | -2 | 0 | 3 | -1.0 | -10
Cc1nn(Cc2ccccc2)c(C)c1NC(=O)CCCn1nc([N+](=O)[O-])c(Cl)c1C | x | 1.4 | 2.3 | x | -19 | 3 | x | x | x | 47
CCOP(=O)(c1ccc(N(C)C)cc1)C(O)c1ccncc1 (stereo not given) | 0.7 | -1.4 | 1.0 | u | 4 | 0 | 4 | -14 | -2.2 | -5
Cc1cc(NC(=O)CNCC(c2ccccc2)N(C)C)c([N+](=O)[O-])cc1C (stereo not given) | 6.6 | 0.8 | 0.1 | 8% | -13 | x | 9 | 5 | 3.2 | 23
C=CCn1c(SCC(=O)N(C)C)nc2sc3c(c2c1=O)CCC3 | -1.0 | 6.5 | -0.6 | -4% | -4 | 4 | 12 | 14 | -5.2 | -9
CCC(C)(C)n1nnnc1C(c1cc2ccc(OC)cc2[nH]c1=O)N1CCc2ccccc21 (stereo not given) | x | 11 | -0.4 | -4% | 21 | 1 | x | x | x | 32
Cn1nc(-c2ccccn2)nc2c(=O)n(C)c(=O)nc1-2 | -7.4 | -4.3 | -0.9 | 9% | 4 | 127* | -23 | -28 | -12 | 59*
Cn1c(Cc2cccs2)nnc1SCC(=O)N1CCCc2ccccc21 | x | -3.1 | -1.4 | 1% | -3 | 1 | x | x | x | -3
O=C1CN(C(=O)COc2ccc(F)cc2Cl)c2ccccc2N1 | 1.9 | -0.4 | 0.7 | x | -1 | -3 | 3 | 5 | -3.1 | 5
CN(C)S(=O)(=O)c1ccc(Cl)c(NC(=O)CN2CCN(Cc3ccc4c(c3)OCO4)CC2)c1 | 4.1 | -5.3 | 0.3 | 0% | 1 | -1 | -11 | -9 | -1.5 | 7
COc1ccc(NC2CS(=O)(=O)CC2NCc2ccccc2)cc1 (stereo not given) | x | -0.7 | -1.3 | 0% | -1 | -1 | x | x | x | -10
CC(C)(C)n1nc2c(c1NC(=O)c1ccccc1F)CS(=O)C2 (stereo not given) | -1.7 | u | 0.5 | 8% | 2 | -6 | 4 | 10 | -1.2 | -25
O=C(CN1C(=O)CSc2ccccc21)NC1CCCC1 | -27 | -1.3 | 0.7 | 10% | 24 | -7 | 20 | -3 | 2.6 | -15
Cc1oc(=O)c(NC(=O)c2ccccc2)cc1C(N)=O | -0.3 | x | 0.8 | x | -6 | -2 | 17 | 8 | -2.7 | 7
COc1ccccc1N1CCN(C(=O)C2CCN(S(=O)(=O)c3ccc(F)cc3)CC2)CC1 | x | -0.7 | 2.4 | 4%&11% | -4 | 9 | x | x | x | 11
CC1(C)NC(=O)N(CC(O)CN2CCCC2)C1=O (stereo not given) | x | 0.7 | -0.3 | 12% | -5 | 2 | x | x | x | -11
COc1ccccc1OCc1cc(C(=O)N2CCCC(OCc3cccnc3)C2)no1 (stereo not given) | 1.4 | 2.4 | -0.8 | x | -9 | -6 | -3 | -8 | -3.6 | 19
CCN(CC)C(=N)/C(C#N)=N/Nc1ccccc1 | 3.8 | 3.5 | 0.3 | u | 1 | 2 | -2 | 1 | -1.8 | 21
Cc1ccc(NC(=O)Nc2cccc(Cl)c2)c(C(=O)O)c1 | x | 2.8 | -5.3 | -2% | u | -8 | x | x | x | -42
Oc1cc(Nc2ccncc2)cc2cccnc12 | 70* | x | -0.6 | x | x | -2 | -5 | -8 | -4.7 | x
COc1ccc(-n2c3c(cc(C#N)c2=O)C(=O)CCC3)cc1 | -1.5 | -1.1 | -0.2 | 4% | 12 | -1 | -1 | 4 | -2.7 | -8
N/C(=N\OC(=O)Cc1ccccc1)c1ccncc1 | x | -6.3 | -0.4 | x | -14 | 2 | x | x | x | -18
NC(=O)c1nsc(C(=O)N(Cc2cccnc2)C(C(=O)NCc2ccccc2)c2ccc(O)cc2)c1N (stereo not given) | 3.6 | u | -0.2 | -5% | 5 | -6 | 4 | 1 | -0.7 | -7
CCN1CCN(S(=O)(=O)c2c(C)cc(C)cc2C)CC1 | -1.2 | 3.5 | -0.3 | x | 6 | -7 | -1 | 1 | 1.5 | -37

Reprinted at random: 2 compounds from above, in no set order.
SMILES | MLL AF4-AF9 inh | RanGTP-Imp inh | Bfl-1 A1 inh | Vif TR-FRET | Calb FLC | Beta apoptosis | Ecoli rRNA inh | Ecoli rRNA inh OD600 | Ecoli rRNA inh RFP | T cruzi repl
CCN(CC)C(=N)/C(C#N)=N/Nc1ccccc1 | 3.8 | 3.5 | 0.3 | u | 1 | 2 | -2 | 1 | -1.8 | 21
CCN1CCN(S(=O)(=O)c2c(C)cc(C)cc2C)CC1 | -1.2 | 3.5 | -0.3 | x | 6 | -7 | -1 | 1 | 1.5 | -37

Profiles, quoted from the list. Order of screens: MLL AF4-AF9 inh, RanGTP-Imp inh, Bfl-1 A1 inh, Vif TR-FRET, Calb FLC, Beta apoptosis, Ecoli rRNA inh, Ecoli rRNA inh OD600, Ecoli rRNA inh RFP, T cruzi repl
Oc1cc(Nc2ccncc2)cc2cccnc12 as listed: 70*, x, -0.6, x, x, -2, -5, -8, -4.7, x
COc1ccc(-n2c3c(cc(C#N)c2=O)C(=O)CCC3)cc1 as listed: -1.5, -1.1, -0.2, 4%, 12, -1, -1, 4, -2.7, -8
N/C(=N\OC(=O)Cc1ccccc1)c1ccncc1 as listed: x, -6.3, -0.4, x, -14, 2, x, x, x, -18

An excerpt (hit frequency here may not be typical).
